Compound activity deposited in PubChem BioAssay by Broad Institute.
Ecoli rRNA inh: reduced GFP signal of wild-type E. coli, primary screen, bacterial rRNA inhibitor project, GFP/RFP fluorescence, OD600, single point; E. coli WT GFP vs humanized-ribosome RFP mutants, 24 h; stronger effect = lower value; DMSO median 0, no signal -100; GFP signal change (wild-type ribosome), % (no concentration beside the values); 1.6% of 350,000 active; AID 720706, 2013;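 active = significant combined selectivity score with lowered wild-type GFP, culture density cut under 30%, mutant RFP and density less affected; inactive = any of these conditions unmet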; also: one replicate is shown; some compounds called inactive have numbers as strong as hits
FGF22 binding: binders of human FGF22 protein, primary screen, FGF22 synaptogenesis inhibitor project, biophysical, thermal shift, single point; Fibroblast growth factor 22 (Homo sapiens), Q9HCT0; recombinant FGF22 thermal shift, SYPRO orange fluorescence; percent of sucrose octasulfate shift, DMSO zero; calls only at 9.99 µM; 1.5% of 340,000 active; AID 651658, 2012;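 active = melting point raised past a set limit in the mean and every replicate; three in four hits are not shown here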
Target sequence (Q9HCT0 whole entry, looked up): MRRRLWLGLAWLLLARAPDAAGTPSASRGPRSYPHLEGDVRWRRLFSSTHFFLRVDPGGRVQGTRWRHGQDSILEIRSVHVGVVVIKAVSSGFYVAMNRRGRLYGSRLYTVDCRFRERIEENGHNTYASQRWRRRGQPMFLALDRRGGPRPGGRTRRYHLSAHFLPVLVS
AF4-AF9 inh: inhibitors of AF4 peptide binding to AF9, primary screen, biochemical, AlphaScreen, biotin-AF4 peptide, FLAG-AF9, single point. inhibition, % at 10 µM. Protein AF-9 (Homo sapiens), P42568. 0.47% of 350,000 active;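 active = every replicate reaching a set inhibition limit, whatever the replicate mean, cut at about 25% in these data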;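 also: 0% = plate neutral control median and 100% = total signal loss; the record names both 10 and 1 µM as test concentration; the first replicate is given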
Target sequence (P42568 whole entry, looked up): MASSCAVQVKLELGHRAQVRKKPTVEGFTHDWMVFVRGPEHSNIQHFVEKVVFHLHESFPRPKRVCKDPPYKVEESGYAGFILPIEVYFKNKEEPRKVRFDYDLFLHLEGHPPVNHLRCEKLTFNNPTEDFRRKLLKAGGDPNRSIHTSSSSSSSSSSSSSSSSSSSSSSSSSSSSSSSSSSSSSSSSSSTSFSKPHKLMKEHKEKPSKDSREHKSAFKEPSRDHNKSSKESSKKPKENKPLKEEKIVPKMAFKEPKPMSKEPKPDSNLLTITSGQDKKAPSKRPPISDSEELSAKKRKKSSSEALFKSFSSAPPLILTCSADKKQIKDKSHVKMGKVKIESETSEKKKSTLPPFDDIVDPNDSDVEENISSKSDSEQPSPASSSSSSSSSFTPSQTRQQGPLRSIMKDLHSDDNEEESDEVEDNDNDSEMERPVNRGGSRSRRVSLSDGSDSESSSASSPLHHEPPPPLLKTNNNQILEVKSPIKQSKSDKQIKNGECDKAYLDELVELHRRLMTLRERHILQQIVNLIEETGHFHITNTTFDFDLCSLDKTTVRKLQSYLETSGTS
Ecoli rRNA inh OD600: recorded beside Ecoli rRNA inh, whose call it bears; OD600 change, %; measured here: OD600 growth;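 optical density of the mix in the first replicate; 0 = DMSO median and -100 = no signal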
Ecoli rRNA inh RFP: further read-out of Ecoli rRNA inh, marked with its call; RFP signal change, %; measured here: RFP humanized mutant strains;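 first replicate; 0 = DMSO median and -100 = no signal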
* hit, by the source's call; i = inactive; & = joins results of further samples. These rows are one share of the data; count on the stated rates, not on these rows.

SMILES	Ecoli rRNA inh	Ecoli rRNA inh OD600	Ecoli rRNA inh RFP	FGF22 binding	AF4-AF9 inh
C[C@H](O)C#Cc1cnc2c(c1)C(=O)N([C@@H](C)CO)C[C@H](C)[C@H](CN(C)Cc1ccccn1)O2	4.0	10.6	-1.2	i	-0.3
C[C@H]1CN([C@@H](C)CO)C(=O)c2cc(NS(=O)(=O)c3ccc(F)cc3)ccc2O[C@H]1CN(C)C(=O)Nc1ccc(C(F)(F)F)cc1	0.3	-5.8	1.0	i	-1.9
C[C@H](CO)N1C[C@H](C)[C@@H](CN(C)Cc2ccc(C(=O)O)cc2)Oc2ncc(C3=CCCCC3)cc2C1=O	2.0	11.9	-2.8	i	-2.6
N#Cc1cccc(-c2ccc3c(c2)[C@@H]2[C@@H](CCN2Cc2ccc4c(c2)OCO4)[C@@H](CO)N3)c1	2.2	-0.4	-0.5	i	-0.3
C[C@H](O)[C@@H]1CN2CCc3c([nH]c4ccc(-c5ccc6c(c5)OCO6)cc34)[C@@H]2C[C@@H]1N(C)C(=O)Nc1cc(Cl)cc(Cl)c1	-48.5	-78.7	-7.6	i	7.3
CCc1nc2c(OCC3CCCCC3)cccn2c1N(C=O)Cc1ccc(OC)cc1	-15.6	-30.6	2.0	i	2.0
CC(C)NC(=O)Nc1cccc2c1O[C@@H](CN(C)C(=O)NC(C)C)[C@H](C)CN([C@H](C)CO)C2=O	-8.6	-16.8	-4.4	i	-1.3
CN1C(=O)c2cc(NC(=O)c3ccccc3)ccc2OC[C@@H]2O[C@H](CC(=O)NC3CCCC3)CC[C@@H]21	-10.1	-8.7	-0.5	i	-1.8
C[C@@H](NC(=O)C[C@@H]1C[C@H]2c3cc(NC(=O)Nc4ccccc4F)ccc3O[C@H]2[C@@H](CO)O1)c1ccccc1	1.7	-11.0	3.8	i	0.5
COc1ccc(NC(=O)N(C)C[C@H]2OCCCC[C@H](C)Oc3ccc(NS(=O)(=O)c4ccccc4)cc3C(=O)N([C@@H](C)CO)C[C@@H]2C)cc1	-0.6	-9.0	0.2	i	2.8
CN(Cc1ccc(Cl)cc1)C(c1cc2ccccc2o1)c1nnnn1C(C)(C)C (centres undefined)	15.7	13.5	-1.8	i	-1.3
O=C(N[C@@H]1CC[C@H](CC(=O)N2CCCCC2)O[C@H]1CO)c1ccccn1	2.6	-0.1	-1.0	i	1.0

3 entries out of the list above, arranged by the number in Ecoli rRNA inh OD600, falling:
Molecule | Ecoli rRNA inh | Ecoli rRNA inh OD600 | Ecoli rRNA inh RFP | AF4-AF9 inh
C[C@H](CO)N1C[C@H](C)[C@@H](CN(C)Cc2ccc(C(=O)O)cc2)Oc2ncc(C3=CCCCC3)cc2C1=O | 2.0 | 11.9 | -2.8 | -2.6
CN1C(=O)c2cc(NC(=O)c3ccccc3)ccc2OC[C@@H]2O[C@H](CC(=O)NC3CCCC3)CC[C@@H]21 | -10.1 | -8.7 | -0.5 | -1.8
C[C@H](O)[C@@H]1CN2CCc3c([nH]c4ccc(-c5ccc6c(c5)OCO6)cc34)[C@@H]2C[C@@H]1N(C)C(=O)Nc1cc(Cl)cc(Cl)c1 | -48.5 | -78.7 | -7.6 | 7.3

Next results follow.
SMILES	Ecoli rRNA inh	Ecoli rRNA inh OD600	Ecoli rRNA inh RFP	FGF22 binding	AF4-AF9 inh
CN1c2ccc(C#Cc3ccc(F)cc3)cc2[C@@H]2[C@@H](CCN2S(=O)(=O)c2ccccc2F)[C@H]1CO	-2.7	2.3	1.7	i	-10.0
CCCNC(=O)C[C@@H]1CC[C@H]2[C@H](COc3ccc(NC(=O)c4cc(C)on4)cc3C(=O)N2C)O1	-2.7	1.0	-3.5	i	-12.5
CCCNC(=O)N1C[C@@H]2[C@H](c3ccccc31)[C@@H](CO)N2Cc1ccc(OC)cc1	-1.1	6.2	2.1	i	1.5
C[C@H]1CN([C@@H](C)CO)C(=O)c2cccc(NS(=O)(=O)c3ccc(F)cc3)c2O[C@@H]1CN(C)C(=O)Nc1cccc2ccccc12	-6.9	-13.0	0.9	i	0.5
CNC[C@H]1Oc2ccc(NC(=O)Nc3ccccc3)cc2CC(=O)N([C@@H](C)CO)C[C@@H]1C	1.2	0.9	-1.4	i	0.1
CCCCN(C(=O)c1cc(Cl)nc2ccccc12)c1c(N)n(CCC)c(=O)[nH]c1=O	15.4	26.5	1.6	i	-2.9
Cc1noc(C)c1NC(=O)Nc1ccc2c(c1)C(=O)N([C@H](C)CO)C[C@H](C)[C@H](CN(C)C(=O)Nc1c(C)noc1C)O2	5.5	-0.2	-1.8	i	0.5
COc1ccccc1C#Cc1cnc2c(c1)C(=O)N([C@H](C)CO)C[C@H](C)[C@@H](CN(C)C(=O)CN(C)C)O2	-1.6	6.0	1.6	i	14.1
COc1ccccc1S(=O)(=O)N1CC[C@@H]2[C@@H](CO)Nc3ccc(-c4ccccc4)cc3[C@@H]21	1.6	-7.3	6.8	i	3.5
C[C@@H]1CN([C@H](C)CO)C(=O)Cc2cc(NC(=O)CCCCCC(=O)Nc3ccccc3N)ccc2O[C@H]1CN(C)Cc1ccc(-c2ccccc2)cc1	-1.5	-6.0	2.7	i	0.3
C[C@@H]1CN([C@H](C)CO)C(=O)c2c(c3ccccc3n2C)-c2ccccc2CO[C@@H]1CN(C)C(=O)c1ccc(F)cc1	-1.6	-5.1	0.1	i	-0.2
C[C@@H](O)C#Cc1ccc([C@H]2[C@H]3CN(S(=O)(=O)c4ccccc4)CCCCN3[C@H]2CO)cc1	-0.5	-8.9	-1.4	i	-4.2
C[C@@H]1CN([C@H](C)CO)C(=O)c2cccc(NS(=O)(=O)c3ccccc3)c2O[C@@H]1CN(C)S(=O)(=O)c1ccccc1	0.5	-3.2	-1.0	i	1.6
N#Cc1ccc(CN2CCN(C(=O)C3CC(=O)N(c4ccc5c(c4)OCCO5)C3)CC2)cc1 (centres undefined)	7.4	3.3	0.3	i	-1.3
CC(C)NC(=O)Nc1ccc2c(c1)C(=O)N([C@H](C)CO)C[C@@H](C)[C@H](CN(C)S(C)(=O)=O)O2	0.6	1.0	-2.7	i	-2.3
O=C(C[C@@H]1C=C[C@H](NC(=O)c2ccccn2)[C@@H](CO)O1)NCc1cccc(F)c1	0.4	0.6	0.8	i	4.9
CCCCn1nnnc1C(c1ccccc1)N1CCCN(Cc2ccc(F)cc2)CC1 (centres undefined)	-37.9	-45.4	-8.1	i	1.1
CC(C)C(=O)Nc1ccc2c(c1)C(=O)N(C)[C@H]1CC[C@@H](CC(=O)NCCCN(C)C)O[C@H]1CO2	2.9	8.5	-0.4	i	-19.2
C[C@H]1CN([C@@H](C)CO)C(=O)c2cccc(NS(=O)(=O)c3ccc(F)cc3)c2O[C@H]1CN(C)Cc1ccc(-c2ccccc2)cc1	-4.3	0.9	1.9	i	2.5
CO[C@@H]1CN(C)C(=O)c2ccc(NC(C)=O)cc2OC[C@H](C)NC[C@H]1C	0.1	-0.1	-0.2	i	-0.7
N#C[C@@H]1[C@H](c2ccc(C#Cc3ccc(F)cc3)cc2)[C@@H](CO)N1c1nc(-c2ccccc2)cs1	-4.3	16.0	-1.0	i	-0.7
Cc1cc(C(=O)Nc2cccc3c2O[C@H](CN(C)Cc2ccc(Cl)c(Cl)c2)[C@H](C)CN([C@H](C)CO)C3=O)n(C)n1	-11.6	-15.0	3.3	i	1.4
O=C(NCC1CC1)[C@@H]1[C@@H](CO)[C@@H]2Cn3c(ccc(-c4cccnc4)c3=O)[C@@H]2N1Cc1cocn1	1.7	19.8	1.4	i	-1.8
C[C@H]1CN([C@@H](C)CO)S(=O)(=O)c2ccc(C#Cc3ccccn3)cc2O[C@@H]1CN(C)C	-0.4	9.8	0.9	i	-1.2
COc1cc(C2C3=C(COC3=O)OC(C)(C)Oc3cc4c(cc32)OCO4)cc(OC)c1OC (centres undefined)	1.3	-4.4	-0.2	i	0.0
CN1c2ccc(-c3cccc(F)c3)cc2[C@H]2[C@H](CCN2S(=O)(=O)c2cccc(F)c2)[C@H]1CO	0.1	12.0	0.1	i	5.6
COc1ccc(S(=O)(=O)Nc2ccc3c(c2)C(=O)N([C@@H](C)CO)C[C@H](C)[C@@H](CN(C)C(=O)Nc2cccc4ccccc24)OCCCC[C@@H](C)O3)cc1	-0.5	-1.9	-0.2	i	-6.6
C[C@@H]1CN([C@@H](C)CO)C(=O)Cc2cc(NC(=O)Nc3ccc(F)cc3)ccc2O[C@H]1CN(C)CC1CCCCC1	0.3	-22.8	13.8	i	8.9
COc1ccc(NC(=O)Nc2ccc3c(c2)C(=O)N([C@@H](C)CO)C[C@H](C)[C@H](CN(C)C(=O)Nc2ccc4c(c2)OCO4)OCCCC[C@H](C)O3)cc1	-0.4	2.0	1.4	i	-1.4
C[C@@H]1CN([C@@H](C)CO)C(=O)c2cccc(NS(C)(=O)=O)c2O[C@@H]1CN(C)C(=O)Nc1ccc(F)cc1	2.7	15.3	-0.3	i	-5.2
COCC(=O)Nc1ccc2c(c1)C(=O)N(C)C[C@H](OC)[C@@H](C)CN(C(=O)Cc1ccccn1)[C@H](C)CO2	2.3	0.1	0.7	i	-1.0
CC(C)CCN1CCC(CN2C(=O)C(=O)NC[C@@H]2Cc2ccccc2)CC1	1.4	11.8	-0.8	i	-1.9
CS(=O)(=O)Nc1ccc2c(c1)[C@@H]1C[C@H](CC(=O)NCc3ccccn3)O[C@@H](CO)[C@@H]1O2	2.4	-0.4	1.4	i	-1.5
O=C(Nc1ccccc1F)N1C[C@H]2[C@@H](c3ccccc31)[C@H](CO)N2C(=O)C1CCOCC1	5.4	6.0	-2.6	i	-25.8
CCCC1NC(=O)c2cccnc2-n2c1nc1ccccc1c2=O (centres undefined)	15.4	7.3	-2.0	i	1.7
COc1ccc(S(=O)(=O)N(C)C[C@H]2Oc3cc(C#CC4CCCC4)ccc3S(=O)(=O)N([C@@H](C)CO)C[C@H]2C)cc1	0.4	-10.8	-4.9	i	-1.2
O=C(C[C@@H]1CC[C@@H]2[C@H](COC[C@H](O)CN2S(=O)(=O)c2ccc(F)cc2)O1)NCCN1CCCCC1	-1.1	-0.5	-0.2	i	-0.5
COc1ccc(S(=O)(=O)Nc2ccc3c(c2)C(=O)N([C@@H](C)CO)C[C@H](C)[C@@H](CN(C)Cc2ccncc2)O3)cc1	-0.9	5.7	-0.2	i	-1.0
COc1ccc(S(=O)(=O)Nc2ccc3c(c2)C(=O)N([C@H](C)CO)C[C@H](C)[C@@H](CN(C)C(=O)NC2CCCCC2)OCCCC[C@@H](C)O3)cc1	1.5	4.4	-0.3	i	0.7
COc1ccccc1CNC(=O)C[C@H]1CC[C@H]2[C@@H](COC[C@H](O)CN2C(=O)Nc2ccc(Cl)cc2)O1	-9.4	-18.6	-3.6	i	-2.5
C[C@@H]1CCCCO[C@@H](CN(C)C(=O)CCCN(C)C)[C@H](C)CN([C@H](C)CO)C(=O)c2cc(NC(=O)CCC(F)(F)F)ccc2O1	-0.5	2.0	-0.4	i	-4.1
Cc1noc(C)c1NC(=O)Nc1ccc2c(c1)C(=O)N([C@H](C)CO)C[C@H](C)[C@H](CN(C)S(=O)(=O)c1cccs1)OCCCC[C@@H](C)O2	3.3	9.4	-2.1	i	1.6
CC(C)[C@@H](C)NC(=O)N(C)C[C@@H]1OCc2ccccc2-c2c(n(C)c3ccccc23)C(=O)N([C@H](C)CO)C[C@@H]1C	-1.4	0.7	-0.8	i	-3.7
CCC(=O)Nc1ccc2c(c1)C(=O)N(C)C[C@@H](OC)[C@H](C)CN(Cc1ccccc1OC)[C@@H](C)CO2	3.9	5.0	-1.9	i	-7.0
Cc1noc(C)c1S(=O)(=O)Nc1ccc2c(c1)C(=O)N([C@H](C)CO)C[C@@H](C)[C@@H](CN(C)S(=O)(=O)c1ccc(Cl)cc1)OCCCC[C@H](C)O2	0.7	1.8	-0.6	i	0.9
C[C@H](NC(=O)C[C@H]1CC[C@@H](NC(=O)C2CC2)[C@H](CO)O1)c1ccccc1	0.1	-1.5	0.8	i	0.2
C[C@H]1CN([C@@H](C)CO)C(=O)Cc2cc(NC(=O)c3ccncc3)ccc2O[C@@H]1CN(C)C	5.2	11.7	-0.3	i	0.2
C[C@@H]1CN([C@@H](C)CO)S(=O)(=O)c2ccc(C#CC3CC3)cc2O[C@H]1CN(C)Cc1cccc(F)c1	0.6	6.1	-1.6	i	1.1
Cc1ccccc1S(=O)(=O)NC(=O)C1(C)CCN1C(=O)Cc1ccc(Cl)cc1Cl (centres undefined)	-2.0	3.1	-2.6	i	-2.3
CNc1cncc(-c2ccc(OC)c(OC)c2)n1	6.2	6.9	3.4	i	0.0
CCCC(=O)N1CC2(C1)CN(Cc1cccnc1)[C@H](CO)c1[nH]c3cc(OC)ccc3c12	0.5	13.5	-1.6	i	-0.5
O=C(N[C@H]1CC[C@H](CC(=O)N2CCCCC2)O[C@@H]1CO)c1cccc(F)c1	4.0&8.4	8.0&3.5	-3.5&2.0	i	-2.0&0.6
